eIF4H inh = inhibitors of RNA binding by human eIF4H; Q15056; eIF4H fluorescence polarization binding assay; inhibition, % at 35 µM; 0.94% of 290,000 active;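 active = 50% or more with normal probe brightness, or confirmed in later tests; about a fifth of its hits are not listed in these tables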;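 also: calls also rest on retests at 20 µM and on dose response follow-up; 0% = protein and probe with vehicle and 100% = probe without protein; strong numbers were not always called active; many hits fall short of the cut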
Rce1 inh = blocks yeast Ras-converting enzyme | yeast membranes, quenched prenylated peptide cleavage fluorescence | AID 2563 | calls only | 0.27% of 290,000 active | Q03530;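 active = fall in fluorescence gain of 50% or more versus controls, with final raw signal at or below 3038400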;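 also: plate controls were neutral control wells for no effect and wells lacking membranes for full effect; tested at 10 µM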
HIV Env fusion = inhibitors of HIV Env-mediated cell fusion; HeLa-JRFL Env/CEM21 cell fusion, luciferase; 1.1% of 360,000 active; inhibition, % at 12.3 µM;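 active = mean replicate inhibition score of at least 50 and every replicate individually at or above 50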;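 also: 0% = plate neutral controls and 100% = maraviroc near 300 nM; one replicate is shown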
PABP FP inh = blocks human PABP binding to poly(A) RNA | P11940 | AID 2014 | inhibition, % at 35 µM | 1% of 290,000 active | fluorescence polarization;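 active = 50% or more with normal probe brightness, or confirmed in later tests; about a fifth of its hits are not listed in these tables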;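 also: calls also rest on retests at 20 µM and on dose response follow-up; controls were probe without protein and protein plus probe with vehicle; some compounds called inactive have numbers as strong as hits; many hits fall short of the cut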
Target sequence (P11940 whole entry, looked up): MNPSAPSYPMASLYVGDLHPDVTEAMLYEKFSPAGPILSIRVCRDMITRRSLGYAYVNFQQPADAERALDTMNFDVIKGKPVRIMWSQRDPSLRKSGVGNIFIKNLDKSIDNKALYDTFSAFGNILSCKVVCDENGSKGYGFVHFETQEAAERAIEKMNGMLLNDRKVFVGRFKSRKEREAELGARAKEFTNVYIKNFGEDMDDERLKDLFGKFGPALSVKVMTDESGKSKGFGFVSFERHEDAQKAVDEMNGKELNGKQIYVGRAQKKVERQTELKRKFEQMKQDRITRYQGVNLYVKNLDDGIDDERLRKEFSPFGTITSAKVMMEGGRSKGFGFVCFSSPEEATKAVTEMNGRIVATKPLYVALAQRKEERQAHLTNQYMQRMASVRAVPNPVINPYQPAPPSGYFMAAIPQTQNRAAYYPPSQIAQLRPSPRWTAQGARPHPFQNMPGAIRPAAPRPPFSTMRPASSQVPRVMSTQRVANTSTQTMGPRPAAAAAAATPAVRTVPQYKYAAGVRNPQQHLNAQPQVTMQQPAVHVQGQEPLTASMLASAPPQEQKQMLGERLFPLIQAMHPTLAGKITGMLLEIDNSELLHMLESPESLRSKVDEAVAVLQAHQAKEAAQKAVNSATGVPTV
MT1-MMP act inh = blocks activation of human MT1-MMP. HT1080 RFP-PRO-GFP cells, GFP/RFP ratio fluorescence, overnight; percent of plate control window, DMSO zero. GFP/RFP ratio change, % at 20 µM. 0.061% of 360,000 active;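 active = GFP/RFP ratio change of at least 30% with cell ATP level not reduced by more than half and red fluorescence within 50% of control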; also: strong numbers were not always called active
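Assay system: HT1080 cells carrying an RFP-PRO-GFP reporter | Dosing: Single dose of 20 µM compound, 1% DMSO final | Incubation: Cells overnight before dosing, compound overnight, 37 °C, 5% CO2 | Evaluation: GFP/RFP fluorescence ratio | Control set: DMSO and RFP-L50D-GFP cell wells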
CSC inhib = cancer stem cell inhibition | cancer stem cell-like cells viability, luminescence | inhibition, % at 7.5 µM | 1.1% of 300,000 active | AID 2717;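 active = mean at 75% or more and at least half the replicates too; tested in HMLE shEcad cells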;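 also: 0% = median of negative and 100% = median of positive control wells; the first replicate is given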
Yeast UUG start = modulators of start codon recognition fidelity in yeast; S. cerevisiae UUG-firefly luciferase reporter, luminescence/redox ratio; 0.13% of 350,000 active; activity score, % at 18.7 µM; AID 602363;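 active = replicate mean at a twofold rise or more, about +100% in these data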;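 also: firefly luciferase made from a UUG start codon reports start codon fidelity; reporter light over untreated wells divided by growth signal over untreated wells; some hits fall short of that in this replicate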
eIF4H inh retest = recorded beside eIF4H inh, whose call it bears; inhibition, %; compound at 20 µM; confirmation average;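 mean of two retest wells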
PABP FP inh retest = also measured in PABP FP inh; calls as there; inhibition, %; compound at 20 µM; confirmation repeats;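 mean of two retest wells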
MT1-MMP act inh RFP = second read-out of MT1-MMP act inh, no call of its own (marks repeat the call); RFP signal change, %; measured here: RFP expression control read;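 0 = vehicle wells; hits needed this value within 50% of zero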
An asterisk follows results filed as active; i = inactive; x = no result given.

SMILES | eIF4H inh | Rce1 inh | HIV Env fusion | PABP FP inh | MT1-MMP act inh | MT1-MMP act inh RFP | CSC inhib | Yeast UUG start | others
CCC(C(=O)OCC(=O)Nc1c(C)nn(-c2ccccc2)c1C)c1ccccc1 (stereo not given) | x | i | 8 | x | 5 | 4 | 0 | 6
COCCNC(=O)C1(C)CCN(Cc2cccc(Oc3ccccc3)c2)C1 (stereo not given) | x | x | -87 | x | 4 | 1 | x | -8
COc1cc(NS(=O)(=O)c2cc(C(=O)NCCc3ccccn3)ccc2OC)cc(OC)c1 | x | x | -20 | x | -6 | -2 | -10 | -11
COC(=O)Nc1nc(C)c(C(=O)c2ccccc2)s1 | -2 | i | x | -4 | -1 | 2 | -2 | -11
Cc1cc(C(=O)NN=C2CCCCCCC2)c2ccccc2n1 | x | i | x | x | 2 | 5 | -4 | -16
CC(C)c1nnc(NC(=O)CCC(=O)Nc2ccc(F)cc2)s1 | 1 | i | x | -12 | 5 | 5 | -4 | 0
COC(=O)c1ccc(COc2ccc3c(C)c(C)c(=O)oc3c2)o1 | 2 | i | x | -7 | -3 | 0 | -5 | -24
CCOc1ccc(NC(=O)CN(C)C(=O)/C=C/c2ccc(S(=O)(=O)N3CCCCCC3)cc2)cc1OCC | x | i | x | x | -4 | 0 | -5 | -13
CSCCC(NC(=O)c1ccco1)C(=O)OCc1cc([N+](=O)[O-])cc2c1OCOC2 (stereo not given) | 3 | i | 11 | -3 | 1 | 6 | x | x
C=CC[C@@H](CC(=O)N[C@@H](CO)Cc1ccccc1)C(=O)N[C@H](COC(=O)[C@@H](CC=C)CC(=O)OC(C)(C)C)Cc1c[nH]c2ccccc12 | x | x | -51 | x | -10 | -17 | 12 | -18
Cc1cccc(C(=O)NCCN2CCOCC2)c1[N+](=O)[O-] | -7 | i | -7 | 8 | 6 | 6 | -2 | -5
O=C(Nc1c2c(nn1-c1ccc(F)cc1)CS(=O)C2)c1ccc(S(=O)(=O)N2CCOCC2)cc1 (stereo not given) | 14 | i | 16 | -21 | -1 | 7 | 17 | x
O=C(O)C1=C[C@H](c2ccc(Br)cc2)C[C@H](OCc2ccc(CO)cc2)O1 | -5 | i | 13 | -4 | 1 | 3 | -4 | -6
CCOCCn1c(=O)c2c(nc3n2CCCN3CCc2ccccc2)n(C)c1=O | 0 | i | -9 | 16 | -1 | -1 | 25 | 8
COc1ccc2nc(NC(=O)Nc3cccc4ccccc34)sc2c1 | 2 | i | -19 | -2 | -7 | -2 | 5 | x
N#CC1(NC(=O)CN2CCc3ccccc3C2)CCCC1 | 1 | i | -27 | -9 | 0 | -1 | 5 | x
COC(C[C@@H]1O[C@H]1[C@@H](O)COCc1ccccc1)OC | 2 | i | -28 | 0 | 2 | 3 | x | -14
Cn1cnnc1SCC(=O)NC(=O)NCc1ccccc1 | x | x | -3 | x | -2 | 3 | x | -15
COc1cc2cc(C(=O)Nc3ccccc3)c(N)nc2cc1OC | 5 | x | x | -4 | 4 | 5 | -9 | -18
Cc1c(C(=O)Nc2cccnc2)oc2ccc(Br)cc12 | 0 | i | -87 | -13 | -2 | -7 | 28 | -11
O=C(/C=C/c1ccco1)NC(=S)Nc1nc(-c2ccc(Cl)cc2)cs1 | 32 | i | -24 | 7 | -12 | -12 | x | -17
Oc1ccccc1-c1nnc(SCCN2CCOCC2)n1Cc1ccccc1 | 15 | i | -1 | 25 | -13 | -8 | 20 | -7
C=CCNC(=O)CN1N=C(c2ccc(C)cc2)CCC1=O | 8 | i | -4 | 10 | 2 | 5 | 4 | -6
O=C(/C=C\c1cccs1)c1c(O)ccc2ccc(=O)oc12 | 4 | i | 12 | 88 | -5 | 0 | 10 | -3 | eIF4H inh retest=-8;PABP FP inh retest=7
O=C(CSc1nc(-c2cccs2)cc(C(F)(F)F)n1)Nc1cc(OCC(F)(F)C(F)F)cc([N+](=O)[O-])c1 | 4 | i | 54 | 12 | -6 | -8 | -13 | x

Arranged by molar mass (lowest first): some entries from above.
SMILES | eIF4H inh | Rce1 inh | HIV Env fusion | PABP FP inh | MT1-MMP act inh | MT1-MMP act inh RFP | CSC inhib | Yeast UUG start | others
O=C(/C=C/c1ccco1)NC(=S)Nc1nc(-c2ccc(Cl)cc2)cs1 | 32 | i | -24 | 7 | -12 | -12 | x | -17
COc1cc(NS(=O)(=O)c2cc(C(=O)NCCc3ccccn3)ccc2OC)cc(OC)c1 | x | x | -20 | x | -6 | -2 | -10 | -11
O=C(CSc1nc(-c2cccs2)cc(C(F)(F)F)n1)Nc1cc(OCC(F)(F)C(F)F)cc([N+](=O)[O-])c1 | 4 | i | 54 | 12 | -6 | -8 | -13 | x

Other compounds.
SMILES | eIF4H inh | Rce1 inh | HIV Env fusion | PABP FP inh | MT1-MMP act inh | MT1-MMP act inh RFP | CSC inhib | Yeast UUG start | others
CSc1ncc(OCc2ccccc2)c(=O)[nH]1 | 7 | i | 8 | 3 | -1 | 1 | -2 | x
Cc1ccccc1C(=O)N1CCC(C(=O)Nc2cccc(S(=O)(=O)N3CCCCC3)c2)CC1 | x | x | x | x | -2 | -18 | -17 | -15
Cc1cc(C(=O)Nc2ncn(Cc3ccc(F)cc3)n2)ccc1[N+](=O)[O-] | -4 | i | 18 | 14 | 7 | 2 | -8 | x
COc1ccc2cc(C#N)c(N3CCN(C(=O)c4ccccc4C)CC3)nc2c1 | 5 | i | 12 | 5 | 4 | -10 | 2 | 0
O=C(Cc1ccccc1Cl)Nc1ccc(S(=O)(=O)Nc2nccs2)cc1 | 4 | i | 15 | 4 | 2 | 6 | 10 | -19
COc1ccccc1NC(=O)C1CCCN(S(=O)(=O)c2ccc3c(c2)CC(C)N3C(C)=O)C1 (stereo not given) | -1 | i | 12 | -11 | 7 | -16 | -5 | -21
Cc1ccc(CC(=O)NC2CCN(C)CC2)cc1 | 0 | i | -1 | -2 | -2 | 0 | -15 | -22
CCOC(=O)C1CCCN(C(=O)COC(=O)c2cc(=O)c3ccccc3o2)C1 (stereo not given) | 0 | i | x | -11 | 0 | 4 | -14 | -13
CCCC1(C)Nc2ccccc2-c2nc3ccccc3n21 (stereo not given) | 13 | i | -35 | -2 | 4 | 1 | -11 | -9
CCOC(=O)c1[nH]cnc1C(=O)Nc1ccncc1 | 0 | i | x | 8 | 6 | 2 | -25 | -14
CC(C)NC(=O)CCn1ccc2cc(S(=O)(=O)N3CCCC3)ccc21 | -8 | i | 0 | 12 | 1 | 3 | -10 | -7
Cc1nc2scc(C)n2c(=O)c1S(=O)(=O)Nc1ccc(F)cc1 | 6 | x | 7 | 9 | -2 | -1 | 2 | -4
Cc1ccc(NC(=O)CN(C)CCOc2ccccc2)c([N+](=O)[O-])c1 | 6 | x | -5 | 1 | 1 | 2 | 4 | -12
CC(C)CC(C(=O)Nn1cnnc1)N1C(=O)c2ccccc2C1=O (stereo not given) | -1 | i | x | 2 | 6 | 4 | 1 | -11
CC(=O)c1ccc(NC(=O)CSc2ccc(-c3ccc4c(c3)OCO4)nn2)cc1 | 1 | i | -51 | 2 | 2 | 1 | -16 | 18
Cc1c([N+](=O)[O-])nnn1-c1cc(Cl)cc(Cl)c1 | -1 | i | x | 10 | -2 | 0 | 0 | x
CCCCCCCCNC(=O)C(CCC(=O)OCc1ccccc1)NC(C)=O (stereo not given) | -3 | i | x | -5 | -6 | -1 | -2 | 8
CC(C)=CC[N+]1(C)CCCCC1 | 3 | i | -12 | -2 | 3 | 2 | -14 | x
CCc1nc2ccc(C(=O)NCc3ccc4c(c3)OCO4)cn2c1N(CC)Cc1cccc(Br)c1 | x | x | 1 | x | -2 | -2 | x | -14
Cc1cccc(C(=O)OC2CCOC2=O)c1C (stereo not given) | -10 | i | 3 | 2 | -3 | 5 | -12 | -15
O=C1Nc2ccc([N+](=O)[O-])cc2OC1CCN1CCN(Cc2ccccc2)CC1 (stereo not given) | -10 | i | 7 | -6 | 6 | 3 | -8 | x
COc1ccc(CC(=O)Nc2nc3ccccc3[nH]2)cc1 | -1 | i | -19 | 5 | -2 | 0 | 1 | x
COc1ccc(NC(=O)/C=C/c2cc(OC)c(OC)c(OC)c2)cn1 | 4 | i | -8 | 0 | -1 | -4 | 16 | x
O=c1oc(Nc2ccccc2Cl)nc2ccccc12 | -1 | i | -27 | -1 | 0 | 2 | x | x
CCOC(=O)c1ccc(NS(=O)(=O)c2c(N)[nH]c(=O)[nH]c2=O)cc1 | x | i | 3 | x | 0 | 2 | -5 | -15
SMILES | eIF4H inh | Rce1 inh | HIV Env fusion | PABP FP inh | MT1-MMP act inh | MT1-MMP act inh RFP | CSC inhib | Yeast UUG start | others
O=C(/C=C/c1cccc([N+](=O)[O-])c1)Nc1ccccc1N1CCOCC1 | 5 | i | 7 | 4 | 2 | 1 | -4 | x
COCCN=c1scc(C)n1/N=C/C1CC2C=CC1C2 (stereo not given) | -14 | i | 63* | 3 | -1 | 3 | 3 | x
O=C(NC1(C(F)(F)F)N=C(c2ccccc2)NC1=O)c1ccc(Cl)cc1Cl (stereo not given) | 4 | i | -10 | -2 | -2 | -1 | -8 | -16
CC(C)Oc1ccc(C(=O)NC2(C(F)(F)F)N=C3SCCN3C2=O)cc1 (stereo not given) | -7 | i | 13 | -8 | 2 | 4 | -12 | 8
O=C1CC(C(=O)Nc2ccc(Br)cc2)S/C(=N\N=C\c2ccco2)N1 (stereo not given) | -9 | i | -3 | -6 | x | x | -4 | x
Cc1ccc(Oc2cc(NN3CCCCC3)c([N+](=O)[O-])cc2[N+](=O)[O-])c(Cl)c1 | -12 | i | 47 | 2 | 8 | -3 | -1 | -10
CC(=O)Nc1ccc(OCC(O)CN2CCN(c3cc(Cl)ccc3C)CC2)cc1 (stereo not given) | -5 | i | -85 | -6 | 1 | -1 | 84* | -16
COc1ccc(N(C)S(=O)(=O)c2cccc(C(=O)Nc3ccc(N4CCOCC4)cc3)c2)cc1 | x | x | 21 | x | 1 | -11 | 2 | 8
COCCn1c(=NC(=O)c2ccc(S(=O)(=O)N3CCc4ccccc4C3)cc2)sc2cc(OC)ccc21 | 5 | i | -2 | 8 | 1 | 2 | x | 5
COc1ccc(C(=O)Nn2c(SCC(=O)c3ccccc3)nc3ccccc3c2=O)cc1 | 18 | i | -56 | 9 | -2 | 0 | 5 | x

Among those listed so far, these contain a Cl atom.
SMILES | eIF4H inh | Rce1 inh | HIV Env fusion | PABP FP inh | MT1-MMP act inh | MT1-MMP act inh RFP | CSC inhib | Yeast UUG start | others
O=C(/C=C/c1ccco1)NC(=S)Nc1nc(-c2ccc(Cl)cc2)cs1 | 32 | i | -24 | 7 | -12 | -12 | x | -17
O=C(Cc1ccccc1Cl)Nc1ccc(S(=O)(=O)Nc2nccs2)cc1 | 4 | i | 15 | 4 | 2 | 6 | 10 | -19
Cc1c([N+](=O)[O-])nnn1-c1cc(Cl)cc(Cl)c1 | -1 | i | x | 10 | -2 | 0 | 0 | x
O=c1oc(Nc2ccccc2Cl)nc2ccccc12 | -1 | i | -27 | -1 | 0 | 2 | x | x
O=C(NC1(C(F)(F)F)N=C(c2ccccc2)NC1=O)c1ccc(Cl)cc1Cl (stereo not given) | 4 | i | -10 | -2 | -2 | -1 | -8 | -16
Cc1ccc(Oc2cc(NN3CCCCC3)c([N+](=O)[O-])cc2[N+](=O)[O-])c(Cl)c1 | -12 | i | 47 | 2 | 8 | -3 | -1 | -10
CC(=O)Nc1ccc(OCC(O)CN2CCN(c3cc(Cl)ccc3C)CC2)cc1 (stereo not given) | -5 | i | -85 | -6 | 1 | -1 | 84* | -16

Compound activity: PubChem BioAssay, several laboratories
